# Screening data deposited in PubChem BioAssay by Fisher Drug Discovery Resource Center.
# NPYLR7 ag – activates Aedes aegypti NPYLR7 receptor; AID 1259423; activation, % at 10 µM; HEK293T NPYLR7/Galpha15, GCaMP6s calcium fluorescence; 270,000 compounds, 0.15% hits; in the data active = activation above about 40%;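 note: 0% = vehicle and 100% = reference agonist at the receptor; some compounds past the cut are filed as inactive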
# NPYLR7 ag max-min – recorded beside NPYLR7 ag, whose call it bears; activation, %; measured here: Max-Min RFU normalised activation; some inactives read as strong as hits;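 span of the calcium signal over five minutes; 0% = vehicle and 100% = native peptide agonist; compound fluorescence can raise it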
# * hit, by the source's call; & = joins results of further samples. This is a subset; count on the stated rates, not on these rows.
SMILES,NPYLR7 ag,NPYLR7 ag max-min
c1ccc(C(CCNc2ncnc3[nH]ncc23)c2ccccc2)cc1,0,-1
CCc1c(C(=O)N2CCN(CCn3cncn3)CC2)[nH]c2ccccc12,4,1
O=C(NCC1CCCN(Cc2ccc(-n3cccn3)cc2)C1)c1cccc2ccccc12 (configuration not stated),3,-3
CC(=O)c1cc(Cl)cc(Cn2cnc(C)c2C)c1O,11,10
Cc1cc(Oc2ccccc2C(C)C)nc(SCc2c(F)cccc2F)n1,21,24
CCc1nc(C)cn1S(=O)(=O)c1c(C)c(C)cc(C)c1C,5,1
CCc1noc(-c2cc(Cl)ccc2NC(=O)COC)n1,7,3
CN(CC1CCN(Cc2ccccc2)CC1)c1nncc(-c2ccccc2)n1,20&-4,11&-6
Cc1nc2ccccc2n(C)c1=O,12,15
O=S(=O)(c1ccccc1)N1CCN(c2ncnc3c2CCNC3)CC1,3,1
Cc1cccc(CSc2nnc(CNC(=O)c3cccc([N+](=O)[O-])c3)n2-c2cc(Cl)ccc2Cl)c1,3,4
O=c1c2cc3c(=O)n(C4CC4)ccc3nc2ccn1-c1ccncc1,0,2
CC(C)C(NCC(O)COCc1ccccc1)c1nc(-c2ccc([N+](=O)[O-])cc2)no1 (configuration not stated),16,18
c1ccc(-c2cn(-c3ccccc3)c3[n+]2CCCS3)cc1,-1,1
Cc1cccc(C2CCCN2C(=O)Cn2cc(CO)nn2)c1C (configuration not stated),-17&-2,-20&171
COc1ccccc1CCC(=O)N1CCc2c(c(C(=O)O)nn2CC2CC2)C1,0,-7
Cc1ccc(NC(=O)CSc2ccc3nnc(-c4ccncc4)n3n2)cc1,2,1
Cc1ccc(-c2cc3c4nn(CC(=O)N5CCN(c6ccc(F)cc6)CC5)c(=O)n4ccn3n2)cc1C,-5,-6
CCCn1nc(C(=O)Nc2cccc(S(=O)(=O)N3CCCCC3)c2)ccc1=O,2,8
Cc1ccc(CC(=O)Nc2ccnn2Cc2cc(Br)cs2)cc1,6,9
CSc1ccc(C=NN2CCN(Cc3ccc(C)cc3C)CC2)cc1,-1,-6
CC1CC(=O)NN=C1c1ccc(N2CCOCC2)c([N+](=O)[O-])c1 (configuration not stated),-5,-7
O=C(NC(C(=O)N1CCCC1)C1CCN(C(=O)c2ccc(F)cc2)CC1)c1ccc2c(c1)OCO2 (configuration not stated),11,13
Cc1ccc(I)c(OCC#N)c1,8,4
CCCNc1nc2c(C)cccn2c(=O)c1C=C1SC(=S)N(CC(C)C)C1=O,-2,-3
CNC(=O)CSc1nc(-c2ccccc2)c(NC(=O)c2ccccc2C)s1,-4,-10
COc1cc([N+](=O)[O-])ccc1N1C(=O)C2C(C1=O)C1C=CC2C12CC2 (configuration not stated),0,-3
CCC(C)N=C(NC(=O)c1cccc(C(F)(F)F)c1)OCCOC (configuration not stated),-2,3
COc1ccc(-n2cc(CNC(=O)N(C)C3CC3)nn2)cc1,0,-3
CC(=O)O[C@@](C)(CCC=C(C)C)C1CC=C(C)CC1 (some centres not stated),-3,-7
Cc1nc2cc(C(=O)N3CCNC(=O)C3)ccc2s1,7,7
O=C(O)C=Cc1ccc([N+](=O)[O-])o1,10,9
CN(C)c1ccc(CNc2nnc(Cl)cc2C(N)=O)cn1,1,18
O=C(Cn1cnc2c(nnn2-c2ccccc2)c1=O)N1CCc2ccccc21,10,9
CCc1nc2ccc(C(=O)N3CCN(C(=O)c4ccco4)CC3)cn2c1N(CC)Cc1ccc(OC)c(OC)c1,16,8
CCc1nc2ccc(C(=O)N3CCCCC3)cn2c1N(CC)Cc1cccc(Br)c1,18,19
Cc1ccc(N(CC(=O)N(Cc2ccccc2)Cc2ccccc2)S(=O)(=O)c2ccc(F)cc2)cc1,4,12
Cc1ccc2nc(-c3ccccc3[N+](=O)[O-])c(NC3CCCCC3)n2c1,-5&22,-1&13
N#CC1C(=N)C(C#N)(C#N)C(c2cccc(F)c2)C2CCCC=C12 (configuration not stated),17,10
CCN(CC)c1ccc(CNC(=O)c2cccc(C)n2)cn1,-3,-1
CCc1c(C(N)=O)cnn1-c1ccc(NC(=O)c2cccc(Cl)c2)cc1,1,-1
CCN(CC)C(=O)CCN1C(=O)/C(=C\c2ccc(F)cc2)SC1=S,-4,-9
O=C1CCC(CCC(=O)N2CCC(Sc3ccc(F)cc3)CC2)(Cc2cccs2)N1 (configuration not stated),14,3
Cc1cc(=O)oc2cc(CN3CCN(C(=O)c4ccccc4)CC3)ccc12,25,5
c1ccn2cc(-c3ccc4c(c3)OCO4)cc2c1,5,3
O=C1CC(O)C(C(O)C(O)C(O)c2ccccc2)O1 (configuration not stated),-13,-26
O=C(Cn1ccn2nc(-c3ccc(Cl)cc3)cc2c1=O)NCc1ccc(F)cc1,5,3
CC1(c2cccc3ccccc23)NC(=O)N(Cc2ccc(C(N)=O)cc2)C1=O (configuration not stated),9,7
O=C(Nc1nnc(-c2ccco2)s1)c1ccccc1Cl,-11,-15
COc1cc(C)c(CNCc2nncn2C)cc1OC,-1,-4
COc1ccc(S(=O)(=O)N(CC(=O)N2CCCCCC2)c2ccc(C)cc2)cc1OC,3,-1
COc1cccc(-c2cc(C(=O)N3CCN(C(=O)c4cc(C(F)(F)F)cc(C(F)(F)F)c4)CC3)c(C)n2-c2ccccc2F)c1,-1,-1
CC(C)Cc1nc(CCN2CCCCC2=O)n(-c2ccccc2)n1,32,17
Cc1cccc(C)c1NC(=O)c1cccc(CN2CCCCC2CCO)c1 (configuration not stated),0,-3
CSc1nnc(SC(C(=O)Nc2ccc(F)cc2)C(C)C)s1 (configuration not stated),12,8
Fc1ccc(C2CCCN2Cc2nc(Cc3cccc(C(F)(F)F)c3)no2)cc1 (configuration not stated),0,1
CSCCC(=O)N1CCC(O)(c2ccc3nc(C)ccc3c2)CC1,8,9
COc1ccc(C(=O)N2CCN(C(C(=O)NCc3ccncc3)C3CCCC3)CC2)cc1OC (configuration not stated),-4,-2
CCOC(=O)c1nn(CCC(C)C)c2c1CN(C(=O)CCc1nc3ccccc3[nH]1)CC2,15,0
CCCCc1ccc(S(=O)(=O)NC(=O)C2(C)CCN2C(=O)C2CC2)cc1 (configuration not stated),5,5

# Single records, from the list above. Screens in order: NPYLR7 ag, NPYLR7 ag max-min
# CC1CC(=O)NN=C1c1ccc(N2CCOCC2)c([N+](=O)[O-])c1 (configuration not stated) is listed as -5, -7
# COc1ccc(-n2cc(CNC(=O)N(C)C3CC3)nn2)cc1 is listed as 0, -3

# (list continues)
SMILES,NPYLR7 ag,NPYLR7 ag max-min
COCCCN(CC(=O)N1CCSC1c1ccc(F)cc1)Cc1c(F)cccc1F (configuration not stated),-7,-6
COc1cc(Cl)cc(CN(C)C(C)C(=O)N(C)C)c1OC (configuration not stated),15,12
Cc1[nH]n(-c2ccccc2)c(=O)c1N=Nc1ccc(C(=O)O)cc1,-2,-5
Cc1ccc2n1CCNC2C (configuration not stated),1,6
CCc1cc(C(=O)OC)c(NC(=S)NNC(=O)c2csc3ccccc23)s1,72,14
CC(C)c1ccc(C2C(=C(O)c3ccccc3)C(=O)C(=O)N2CCN2CCOCC2)cc1 (configuration not stated),0,5
O=C(c1ccc(-c2ccccc2)cc1)N(Cc1ccccc1)Cc1nc2cc(Cl)ccc2o1,0,-1
O=C(c1cnn2c(C(F)(F)F)cc(-c3ccc(Br)cc3)nc12)N1CCc2ccccc2C1,5,11
Cc1ccsc1CN(C)C(=O)c1sc(S(N)(=O)=O)cc1C,-3,-5
COCc1nn2c(=O)c(NC(=O)c3cccc(C)c3)cnc2s1,0,2
CC(C)COC(=NCCCN1CCOCC1)NC(=O)c1cccs1,-7,-8
COCCSc1nc(=O)n2cc(C)ccc2n1,1,-2
CCN(C(=O)c1c(O)c2c(Cl)cccc2n(C)c1=O)c1ccccc1,0,-10
CCCCN(C(=O)CCl)c1c(N)n(CC(C)C)c(=O)[nH]c1=O,-6,-9
COc1ccc(Oc2ccc3c(C4CC4)noc3n2)c(F)c1,-1,-3
CC(C)(C)C(=O)CSc1nc2c(c(-c3cccs3)c1C#N)CCCC2,7,5
CN(C)N=CC=C1CCCC(=Cc2cccs2)C1=O,3,2
CCCn1cc(NC(=O)Nc2ccccc2C(F)(F)F)ccc1=O,1,14
CCOC(=O)CCCSc1nnc(Cc2ccccc2)n1-c1cccc(C(F)(F)F)c1,12,17
Cc1c(C#N)c2nc3ccccc3n2c(=O)c1=CC1C(=O)NN(c2ccc(Cl)cc2)C1=O (configuration not stated),0,-2

# Reformatted: entries from further up.
# The line under a structure holds: NPYLR7 ag	NPYLR7 ag max-min
COc1ccc(Oc2ccc3c(C4CC4)noc3n2)c(F)c1
→ -1	-3
COc1cc(Cl)cc(CN(C)C(C)C(=O)N(C)C)c1OC (configuration not stated)
→ 15	12
CC(C)C(NCC(O)COCc1ccccc1)c1nc(-c2ccc([N+](=O)[O-])cc2)no1 (configuration not stated)
→ 16	18
CCN(CC)C(=O)CCN1C(=O)/C(=C\c2ccc(F)cc2)SC1=S
→ -4	-9

# Additional structures follow.
SMILES,NPYLR7 ag,NPYLR7 ag max-min
Cc1cc2nnc(SCC(=O)Nc3ccccc3SCC#N)n2c2ccccc12,1,-3
O=C(NCCc1ccccc1)C1CC(=O)N(CCc2ccccc2)C(=Nc2ccc(Cl)cc2)S1 (configuration not stated),-1,-3
COCC(=O)Nc1ccc(-c2c(-c3ccc(N(C)C)cc3)nn(-c3ccc(C)cc3C)c2OC(C)=O)cc1,3,3
CCc1nc2ccc(C(=O)NCc3ccc(N(C)C)cc3)cn2c1N(C)C(=O)c1ccncc1,22,18
O=C(CCc1cccnc1)N1CCOC(COc2ccc3c(c2)CCCC3)C1 (configuration not stated),4,15
COc1ccc(-c2cnnc(NCCCN3CCOCC3)n2)c(OC)c1,0,-5
CCOC(=O)c1cc(-c2ccc(Cl)cc2Cl)n(-c2ccc(C(=O)N3CCCCC3CC)cc2)n1 (configuration not stated),6,-1
CC(C)NS(=O)(=O)c1ccc(C(=O)N(CC(F)(F)F)c2ccccn2)cc1,-1,-2
CC1=NNc2nc3c(c(=O)n(Cc4ccc(Br)cc4)c(=O)n3C)n2C1C (configuration not stated),3,4
Cc1c(O)c(=O)ccn1C,-12&-1,-18&-6
C=C(C)Cn1c(=O)c2c(nc3n(CC)c(C)cn23)n(C)c1=O,-4,-8
CCOCCOc1nc(-c2ccc(OC)cc2)n(-c2cccc(NC(=O)c3ccco3)c2)n1,15,12
CN(C)CCNc1nc(Oc2cccc(F)c2)c2sccc2n1,2,-1
C=c1oc(C)cc1=C1NN=C(c2c(F)cccc2Cl)O1,-10,-8
O=C(c1cnn2c1NC(c1ccc(F)cc1)CC2C(F)(F)F)N1CCCCC1 (configuration not stated),11,10
CCOC(=O)CNc1c(-c2cccc(OS(=O)(=O)c3cccc(C(F)(F)F)c3)c2)nc2cccc(C)n12,3,8
O=C(NC1CC1)C1CN(Cc2ccc(-c3ccccn3)cc2)CCN1 (configuration not stated),13,11
CN1C(=O)N(Cc2ccccc2)C2(CCN(Cc3ccc(N(C)c4ccccc4)cc3)CC2)C1=O,22,7
CC(=O)c1[nH]c(C)c(C(=O)NCCN(C)S(C)(=O)=O)c1C,12,5
O=C(c1ccc2snnc2c1)N1CCN(Cc2ccc(-c3noc(-c4ccccc4)n3)cc2)CC1,31,21
O=C(CS(=O)Cc1ccc(-n2cccn2)cc1)NCC(F)(F)F (configuration not stated),12,5
CCNC(=O)Nc1ccc(N(C)C)c(CN(C(=O)NCC)C2CCCCC2)c1,12,19
COc1cc2c(cc1OC)C(=O)OC2,-10,-15
COC(=O)c1ccc(NC(=O)c2cscc2C)cc1F,2,0
O=C1NCCN(Cc2cccc3ccccc23)C1CC(=O)N1CCCCCCC1 (configuration not stated),2,-3
N#CC(=Cc1ccc(O)cc1)C(N)=S,3,0
Cc1ccc2c(c1)C1CCCC3C1N2CC(=O)N3Cc1ccccc1 (configuration not stated),-13,-17
Cc1ccc(NC(=O)C2CSCN2C(=O)c2csnn2)cc1C (configuration not stated),6,3
COCCN(C(=O)Cn1nnnc1CN1CCCC1)C(C)C,14,2
CCCCCCCCC(=O)N(CC(=O)c1c(C)c(C(=O)OC)n(CC)c1C)CC1CCCO1 (configuration not stated),-6,-2
C=C(C)C(O)(C(=C)C)c1ccc(CN(CCOC)Cc2ccco2)o1,6,12
CN(C)CC1(O)CCN(C(=O)c2ccc(-n3cnnc3)cc2Cl)C1 (configuration not stated),4,0

# Laid out differently: results already given
molecule | NPYLR7 ag | NPYLR7 ag max-min
COCCN(C(=O)Cn1nnnc1CN1CCCC1)C(C)C | 14 | 2
CCCCCCCCC(=O)N(CC(=O)c1c(C)c(C(=O)OC)n(CC)c1C)CC1CCCO1 (configuration not stated) | -6 | -2
C=C(C)C(O)(C(=C)C)c1ccc(CN(CCOC)Cc2ccco2)o1 | 6 | 12

# Five of the compounds above, with two lines to a compound.
# Value order: NPYLR7 ag | NPYLR7 ag max-min
CC(C)COC(=NCCCN1CCOCC1)NC(=O)c1cccs1
→ -7 | -8
CCCCN(C(=O)CCl)c1c(N)n(CC(C)C)c(=O)[nH]c1=O
→ -6 | -9
COCCN(C(=O)Cn1nnnc1CN1CCCC1)C(C)C
→ 14 | 2
COc1ccc(Oc2ccc3c(C4CC4)noc3n2)c(F)c1
→ -1 | -3
CC1CC(=O)NN=C1c1ccc(N2CCOCC2)c([N+](=O)[O-])c1 (configuration not stated)
→ -5 | -7
